Screening data (PubChem)
Insulin prom inh = TRM-6 insulin promoter activity inhibition; TRM-6 cells (human fetal islet line), insulin promoter-eGFP reporter, imaging; reporter expression induced with tamoxifen; inhibition, % at 2 µM; 0.9% of 130,000 active; AID 1273;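 active means inhibition above the mean plus 3 SD, with well images judged a real hit on visual review, cut at about 60% in these data, passing the limit was not always enough; inconclusive means inhibition over the cutoff but images rejected on review; inactive means inhibition not above the cutoff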
HSV augment = increases HSV replication in cells. AID 1956. HSV replication augmentation in cells, fold increase. 0.005% of 220,000 active. maximum fold increase;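 active means peak rise of 1.5-fold or more in the series; inconclusive means self-fluorescent or not available for retest; tested in PC3 cells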;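 further: first round at 10 µM; read as green reporter fluorescence; hits show the peak of a series up to 25 µM; 1 = signal of infected wells without compound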
RGS16-Gao = regulators of human RGS16-Galphao interaction. O15492+P09471. bead-based flow cytometry RGS16-Galphao binding, fluorescence; actives lie on both sides. binding response (% of control), % at 10 µM. 0.38% of 220,000 active;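 active means below 25% or above 175%, edge rows of some plates excepted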;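 further: Galphao activated by GDP with aluminum fluoride before binding; 100% = wells without compound and 0% = beads without RGS; some results beyond the cut were filed as inactive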
GALR2 ag = GALR2 (human) receptor agonism; 0.48% of 140,000 active; O43603; AID 803; activation, %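 (tested at 5 µM)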; GALR2-expressing cells, agonist activation read-out;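 active means above mean plus 3 SD of all compounds, about 5% in these data, not always enough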;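 further: 0% = vehicle buffer wells and 100% = reference agonist at full effect; tested in CHO reporter cells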
PKD1 inh = blocks activity of human protein kinase D1; Q15139; PKD1 kinase fluorescence polarization assay; inhibition, %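 (about 10 µM by stock and volumes)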; 0.056% of 200,000 active; AID 797;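 active means inhibition of 50% or more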;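 further: controls were vehicle for no effect and a reference inhibitor for full effect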
Target sequence (Q15139 whole entry, looked up): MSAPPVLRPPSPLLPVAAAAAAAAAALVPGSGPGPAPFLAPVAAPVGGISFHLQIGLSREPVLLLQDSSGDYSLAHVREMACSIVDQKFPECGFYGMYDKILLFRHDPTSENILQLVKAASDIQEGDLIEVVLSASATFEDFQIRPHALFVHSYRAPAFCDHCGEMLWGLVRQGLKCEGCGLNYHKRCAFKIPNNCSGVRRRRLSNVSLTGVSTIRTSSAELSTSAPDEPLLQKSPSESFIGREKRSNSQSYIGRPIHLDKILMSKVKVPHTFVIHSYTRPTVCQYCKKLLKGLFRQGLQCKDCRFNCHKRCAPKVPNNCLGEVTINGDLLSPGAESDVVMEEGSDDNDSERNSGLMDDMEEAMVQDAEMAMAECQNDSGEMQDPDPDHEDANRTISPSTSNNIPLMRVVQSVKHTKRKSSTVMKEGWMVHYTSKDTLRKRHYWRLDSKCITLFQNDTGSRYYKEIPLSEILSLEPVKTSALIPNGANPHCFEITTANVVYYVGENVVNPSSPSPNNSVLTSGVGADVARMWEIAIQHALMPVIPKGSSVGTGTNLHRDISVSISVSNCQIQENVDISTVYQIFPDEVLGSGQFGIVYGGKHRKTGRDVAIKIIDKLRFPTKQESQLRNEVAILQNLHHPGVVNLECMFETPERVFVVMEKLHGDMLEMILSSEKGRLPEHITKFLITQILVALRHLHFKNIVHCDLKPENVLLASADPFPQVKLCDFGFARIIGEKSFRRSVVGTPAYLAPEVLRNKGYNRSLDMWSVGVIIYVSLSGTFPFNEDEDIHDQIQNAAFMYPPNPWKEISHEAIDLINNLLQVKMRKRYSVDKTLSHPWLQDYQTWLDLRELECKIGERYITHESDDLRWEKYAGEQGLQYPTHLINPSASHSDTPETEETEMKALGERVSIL
Insulin prom inh cell count = further read-out of Insulin prom inh, marked with its call; normalized cell count, %; measured here: cell count, toxicity; reference of the scale not given here;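 cells exposed to compound for 48 h; stained nuclei by imaging scaled within each plate; lower means fewer cells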
HSV augment primary fold = also measured in HSV augment; calls as there; fold increase; compound at 10 µM; measured here: primary screen fold increase 10 uM; tested in PC3 cells;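 GFP signal in the first replicate; 1 = infected wells without compound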
* marks the source's active call; other numbers are inactive results; i = inactive; ? = inconclusive; . = no result given.

Letters – A = Insulin prom inh; B = Insulin prom inh cell count; C = HSV augment; D = HSV augment primary fold; E = RGS16-Gao; F = GALR2 ag; G = PKD1 inh
CC(=O)Nc1ccc(C(=O)OCc2ccc(Cl)cc2)cc1
  A = -3 | B = 103 | C = i | D = 0.73 | E = 109 | F = -2.9 | G = -2

CCOc1ncccc1C(=O)OCC(=O)Nc1cc(S(=O)(=O)N2CCOCC2)ccc1C
  A = -8 | B = 131 | C = i | D = 0.97 | E = 45 | F = 0.2 | G = -6

COc1ccc(CCNC(=O)Nc2cccc([N+](=O)[O-])c2)cc1
  A = . | B = . | C = i | D = 0.99 | E = 110 | F = . | G = -2

COC(=O)c1ccc(COc2ccc3c(C)c(C)c(=O)oc3c2C)o1
  A = -29 | B = 136 | C = i | D = 0.96 | E = 107 | F = -1.3 | G = -7

O=C(CCc1ccc(S(=O)(=O)N2CCOCC2)cc1)Oc1ccccc1
  A = . | B = . | C = i | D = 0.92 | E = 97 | F = -0.9 | G = -8

CCOC(=O)C1CCN(c2c(NC3CCCc4ccccc43)c(=O)c2=O)CC1 (centres undefined)
  A = . | B = . | C = i | D = 1 | E = 101 | F = -0.1 | G = 4

O=C1/C(=C/c2ccccc2)N=C(N2CCOCC2)N1c1cccc(Cl)c1
  A = -69 | B = 145 | C = i | D = 0.87 | E = 95 | F = 2.3 | G = 17

COc1ccc(-c2c(N)nnc3c2[nH]c2ccccc23)cc1OC
  A = . | B = . | C = . | D = . | E = 67 | F = -2.1 | G = 1

CCN1CCCC(Sc2nc3c([nH]2)c(=S)n(C)c(=O)n3C)C1 (centres undefined)
  A = . | B = . | C = i | D = 0.98 | E = 103 | F = . | G = .

COc1cc(OC)c(C2C(C(=O)N3CCOCC3)=C(C)NC3=C2C(=O)CC(C)(C)C3)cc1OC (centres undefined)
  A = -8 | B = 114 | C = i | D = 0.71 | E = 133 | F = -1.1 | G = -6

Cc1ccc(S(=O)(=O)N2CCC(C)CC2)c([N+](=O)[O-])c1
  A = . | B = . | C = i | D = 0.92 | E = 98 | F = . | G = -7

CC(=O)Nc1ccc(NC(=O)C2CC(=O)Nc3ncnn32)cc1 (centres undefined)
  A = . | B = . | C = i | D = 1 | E = 97 | F = . | G = .

COCCNC(=S)N1CCN(Cc2cccc(OC)c2)CC1
  A = . | B = . | C = i | D = 0.83 | E = 100 | F = . | G = 2

Cc1ccc(S(=O)(=O)N/N=C/c2cccn2-c2ccc(Cl)cc2)cc1
  A = . | B = . | C = i | D = 0.85 | E = 116 | F = 0.1 | G = 3

O=C(O)CCC(=O)Nc1ccc(Br)cn1
  A = . | B = . | C = i | D = 0.93 | E = 96 | F = -1.5 | G = -2

COc1cc2c(cc1NC(=O)CCCCCN1C(=O)CCC1=O)oc1ccccc12
  A = 25 | B = 137 | C = i | D = 0.97 | E = 104 | F = -2.2 | G = -4

Cc1onc(C(=O)N2C(C)CCCC2C)c1[N+](=O)[O-] (centres undefined)
  A = -7 | B = 107 | C = i | D = 1 | E = 45 | F = -2.1 | G = -2

CC(C)c1ccc(CC(C)C2C3=C(CCCC3=O)OC3=C2C(=O)CCC3)cc1 (centres undefined)
  A = 0 | B = 119 | C = i | D = 1 | E = 105 | F = 1.6 | G = -2

O=C(O)CSc1nc(-c2ccc(Cl)cc2)nc2c1oc1ccccc12
  A = -29 | B = 117 | C = i | D = 1 | E = 66 | F = -0.9 | G = -2

Nc1nnc(CSc2ccc(Cl)cc2)s1
  A = . | B = . | C = i | D = 0.96 | E = 54 | F = -1.3 | G = 3

Cc1ccc(Oc2nc3ccccc3n3c(C)nnc23)c(C)c1
  A = . | B = . | C = i | D = 1.1 | E = 85 | F = -1.1 | G = 1

CN1CCN(CC(=O)NC23CC4CC(CC(C4)C2)C3)CC1
  A = . | B = . | C = i | D = 1.1 | E = 103 | F = . | G = .

CC(NC(=O)C1CCC1)c1ccc(Cl)cc1 (centres undefined)
  A = -19 | B = 66 | C = i | D = 0.84 | E = 104 | F = 0.0 | G = -3

COc1cccc(-n2c(Cc3cc(=O)[nH]c(=O)[nH]3)nnc2SC(C)C)c1
  A = . | B = . | C = i | D = 1.2 | E = 109 | F = -0.7 | G = -7

Cc1cnc(CN2CCCC(C(=O)c3ccc4c5c(cccc35)CC4)C2)[nH]1 (centres undefined)
  A = . | B = . | C = i | D = 0.88 | E = 109 | F = . | G = 1

The results go on:
Letters – A = Insulin prom inh; B = Insulin prom inh cell count; C = HSV augment; D = HSV augment primary fold; E = RGS16-Gao; F = GALR2 ag; G = PKD1 inh
CCOC(=O)N1CCN(C(=O)c2ccc(OC)c(OC)c2)CC1
  A = -3 | B = 88 | C = i | D = 0.8 | E = 97 | F = -0.4 | G = -4

Cn1nnnc1SCc1nc2scc(-c3ccccc3)c2c(=O)[nH]1
  A = . | B = . | C = i | D = 1 | E = 99 | F = . | G = .

O=C(NCc1ccc(F)cc1)c1cc2c(s1)CCCC2
  A = -15 | B = 129 | C = i | D = 1 | E = 103 | F = -1.9 | G = -3

O=C(CSc1nc2c(sc3ccccc32)c(=O)n1CCCN1CCCC1)NCc1ccccc1
  A = . | B = . | C = i | D = 0.95 | E = 96 | F = . | G = -8

C[C@]1(C(=O)NCCCNc2ncc(C(F)(F)F)cc2Cl)C=C[C@@H](Cc2ccccc2)N1C(=O)c1ccccc1
  A = -5 | B = 84 | C = i | D = 1 | E = 102 | F = -2.3 | G = -9

CCOC(=O)C1CCCN(C(=O)COc2ccccc2O)C1 (centres undefined)
  A = 3 | B = 143 | C = i | D = 1 | E = 103 | F = -1.8 | G = -1

CC(=O)Nc1nc2ccccc2n1CCN(C)C
  A = -23 | B = 120 | C = i | D = 0.83 | E = 119 | F = -2.3 | G = -8

O=C(Nc1ccc2c(c1)OCO2)C1CC(=O)N(c2ccc3c(c2)OCCO3)C1 (centres undefined)
  A = -14 | B = 111 | C = i | D = 0.97 | E = 101 | F = . | G = 3

O=C(CN1C(=O)CCSc2ccccc21)Nc1ccc2c(c1)OCCO2
  A = . | B = . | C = i | D = 1 | E = 109 | F = -2.2 | G = 1

CCOc1ccc(N/C(SC)=C(/C#N)C(N)=O)cc1
  A = -19 | B = 106 | C = i | D = 1 | E = 97 | F = -3.4 | G = 6

Cn1cccc1C(=O)NC(=O)COC(=O)CC12CC3CC(CC(Br)(C3)C1)C2
  A = -29 | B = 239 | C = i | D = 0.88 | E = 101 | F = -2.3 | G = 2

O=C(CSc1cn(CCNC(=O)c2cccs2)c2ccccc12)NC1CCCCC1
  A = . | B = . | C = i | D = 0.85 | E = 106 | F = -0.5 | G = -3

Nn1c(SCC(=O)N2CCOCC2)nnc1-c1ccc(Cl)cc1Cl
  A = . | B = . | C = i | D = 0.96 | E = 103 | F = -1.6 | G = -1

OC(COc1ccc(Cl)cc1)CN1CCN(c2cccc(Cl)c2)CC1 (centres undefined)
  A = . | B = . | C = i | D = 0.98 | E = 103 | F = . | G = .

CCCN(CCC)C(=O)CSc1ncccc1C(=O)O
  A = -11 | B = 95 | C = i | D = 1 | E = 58 | F = -0.4 | G = -11

CN(CC(=O)NC1CCCc2ccccc21)S(=O)(=O)c1ccc2c(c1)c(=O)n(C)c(=O)n2C (centres undefined)
  A = . | B = . | C = i | D = 0.36 | E = 100 | F = -2.3 | G = 1

CCc1ccc(C(=O)NNc2cc(Cl)ccc2Cl)cc1
  A = . | B = . | C = i | D = 0.96 | E = 101 | F = . | G = .

CC(=O)c1c(N2CCN(c3ccc(F)cc3)CC2)nc(=S)n(-c2ccccc2)c1C
  A = -100 | B = 138 | C = i | D = 0.99 | E = 101 | F = 0.8 | G = 3

CCOC(=O)CCc1c(C)c(C#N)c2nc3ccccc3n2c1-n1ccnc1C
  A = -436 | B = 55 | C = i | D = 0.85 | E = 103 | F = -1.8 | G = 0

C/C(=N\NC(=S)Nc1cc(S(=O)(=O)N2CCOCC2)ccc1Cl)c1ccc(N2CCOCC2)cc1
  A = . | B = . | C = i | D = 1.1 | E = 101 | F = . | G = .

Cc1ccc(-n2[nH]c(C)c(C=Nc3ccc(S(=O)(=O)Nc4nc(C)cc(C)n4)cc3)c2=O)c(C)c1
  A = -93 | B = 115 | C = i | D = 1.2 | E = 91 | F = 0.9 | G = -3

CCCOc1ccc(C(=O)C(CN2CCCC2)c2ccccc2)cc1 (centres undefined)
  A = . | B = . | C = i | D = 0.54 | E = 100 | F = -1.6 | G = 4

CCc1ccc(-c2csc(NC(=O)C3=NN(c4ccccc4)C(=O)CC3)n2)cc1
  A = -43 | B = 90 | C = i | D = 0.91 | E = 101 | F = -1.6 | G = 5

COc1nc(N)nc(CC(=O)C2CC2)n1
  A = . | B = . | C = i | D = 0.95 | E = 70 | F = -0.3 | G = -1

Cc1cnc(NS(=O)(=O)c2ccc(Cl)cc2)c(Br)c1
  A = . | B = . | C = i | D = 1.2 | E = 101 | F = . | G = .

Reformatted in markdown: part of the list above.
| structure | Insulin prom inh | Insulin prom inh cell count | HSV augment | HSV augment primary fold | RGS16-Gao | GALR2 ag | PKD1 inh |
| --- | --- | --- | --- | --- | --- | --- | --- |
| CCOC(=O)C1CCCN(C(=O)COc2ccccc2O)C1 (centres undefined) | 3 | 143 | i | 1 | 103 | -1.8 | -1 |
| CC(=O)Nc1nc2ccccc2n1CCN(C)C | -23 | 120 | i | 0.83 | 119 | -2.3 | -8 |
| O=C(Nc1ccc2c(c1)OCO2)C1CC(=O)N(c2ccc3c(c2)OCCO3)C1 (centres undefined) | -14 | 111 | i | 0.97 | 101 | . | 3 |
| O=C(CN1C(=O)CCSc2ccccc21)Nc1ccc2c(c1)OCCO2 | . | . | i | 1 | 109 | -2.2 | 1 |

3 records picked at random from the list so far, as already listed:
Letters – A = Insulin prom inh; B = Insulin prom inh cell count; C = HSV augment; D = HSV augment primary fold; E = RGS16-Gao; F = GALR2 ag; G = PKD1 inh
CCCN(CCC)C(=O)CSc1ncccc1C(=O)O
  A = -11 | B = 95 | C = i | D = 1 | E = 58 | F = -0.4 | G = -11

CN(CC(=O)NC1CCCc2ccccc21)S(=O)(=O)c1ccc2c(c1)c(=O)n(C)c(=O)n2C (centres undefined)
  A = . | B = . | C = i | D = 0.36 | E = 100 | F = -2.3 | G = 1

C/C(=N\NC(=S)Nc1cc(S(=O)(=O)N2CCOCC2)ccc1Cl)c1ccc(N2CCOCC2)cc1
  A = . | B = . | C = i | D = 1.1 | E = 101 | F = . | G = .

(listing goes on)
Letters – A = Insulin prom inh; B = Insulin prom inh cell count; C = HSV augment; D = HSV augment primary fold; E = RGS16-Gao; F = GALR2 ag; G = PKD1 inh
CC(C1CC1)N(C(=O)NC1CCS(=O)(=O)C1)c1ccccc1 (centres undefined)
  A = . | B = . | C = i | D = 1.1 | E = 105 | F = -1.6 | G = -4

Cc1ccc2c(CC(=O)OCc3nc(N)nc(Nc4ccccc4C)n3)coc2c1
  A = 21 | B = 90 | C = i | D = 0.64 | E = 92 | F = 0.7 | G = 4

O=C(CNC(=O)c1cccc(F)c1)OCC(=O)N1CCN(C(=O)c2ccco2)CC1
  A = . | B = . | C = i | D = 0.92 | E = 111 | F = . | G = .

C[C@H](NC(=O)Nc1ccc2c(c1)OCCO2)C(=O)O
  A = . | B = . | C = i | D = 0.85 | E = 102 | F = 3.3 | G = -4

CCOC(=O)c1cc(NC(=O)c2ccccc2)c(=O)oc1C(F)(F)F
  A = . | B = . | C = i | D = 0.93 | E = 100 | F = . | G = 5

Cn1c(NN)nc2sc3c(c2c1=O)CCC3
  A = 43 | B = 83 | C = ? | D = . | E = 94 | F = -1.5 | G = 1

COCCn1c(CCC(=O)O)nc2c1c(=O)[nH]c(=O)n2CC(C)C
  A = 12 | B = 124 | C = i | D = 0.99 | E = 105 | F = -1.0 | G = 0

CCSc1sccc1C1C(C#N)=C(N)N(c2cccnc2)C2=C1C(=O)CCC2 (centres undefined)
  A = 50 | B = 120 | C = i | D = 0.84 | E = 107 | F = -0.4 | G = 0

C/C(=N\NC(=O)c1nc(C)cc(C)n1)c1ccccc1
  A = -12 | B = 101 | C = i | D = 1 | E = 107 | F = 0.1 | G = -10

O=C(Nc1ccccc1F)C1CCCN(S(=O)(=O)c2ccccc2)C1 (centres undefined)
  A = 33 | B = 133 | C = i | D = 1 | E = 97 | F = . | G = -2

Cc1ccccc1N1CCN(Cc2nc(Cc3ccccc3F)no2)CC1
  A = . | B = . | C = i | D = 1 | E = 99 | F = . | G = .

CN(CC(=O)Nc1cc([N+](=O)[O-])ccc1Cl)Cc1ccc(Br)cc1
  A = . | B = . | C = i | D = 1 | E = 104 | F = -1.3 | G = 2

CCCOc1ccc(C(=O)O)cc1
  A = . | B = . | C = i | D = 1 | E = 106 | F = . | G = .

C=C(C)CN=C1NN=C(c2cc(C)n(-c3ccc(C)cc3)c2C)CS1
  A = -13 | B = 81 | C = i | D = 0.98 | E = 105 | F = 0.0 | G = -12
